Cruzain inh Det: blocks cruzain activity in presence of Triton detergent; P25779; purified cruzain, Z-FR-AMC fluorescence, 0.01% Triton; Potency, µM, without a hit: max response, negative = inhibition, hits mostly inhibitors; 200,000 tested, 0.43% active; AID 1478;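 further: plate controls were neutral wells for no effect and buffer without enzyme for full effect; nearly all actives have a fitted effect of over 40% in size; top concentration of the series not given in the record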
Target sequence (P25779 123-467 limits assumed): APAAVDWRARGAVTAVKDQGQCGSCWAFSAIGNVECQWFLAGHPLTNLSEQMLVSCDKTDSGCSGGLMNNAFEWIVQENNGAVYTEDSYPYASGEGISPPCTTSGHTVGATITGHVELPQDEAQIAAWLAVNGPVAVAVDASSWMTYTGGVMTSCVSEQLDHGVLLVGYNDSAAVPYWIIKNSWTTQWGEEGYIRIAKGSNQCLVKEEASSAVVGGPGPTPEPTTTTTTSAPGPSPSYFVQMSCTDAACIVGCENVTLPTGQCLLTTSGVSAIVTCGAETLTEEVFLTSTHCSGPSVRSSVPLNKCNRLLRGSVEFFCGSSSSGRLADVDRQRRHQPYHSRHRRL
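Purified cruzain (1.5 nM final) was preincubated with compounds for 15 min at room temperature in 100 mM sodium acetate pH 5.5, 5 mM DTT, 0.01% Triton X-100. Reaction started with 2 uM Z-FR-AMC; AMC fluorescence change over 60 s gave activity.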
SARS PLP yeast: SARS-CoV PLP inhibition in yeast; S. cerevisiae expressing SARS-CoV PLpro, growth rescue; control for the full effect not named in the record; AID 485353; Potency, µM (doses to about 32.9 µM), for the others: at the top dose activity, positive = growth rescue; 330,000 tested, 0.19% active; active means well fitted rising curve with a large enough effect; inconclusive means small, poorly fitted or top-dose-only effect; inactive means no such curve, though single readings can be large or run the other way; further: 0% is about no effect; nearly all actives have a fitted effect of over 55% in size; growth read by luminescence after 48 h
RE007 growth inh: less growth of the S. pombe RE007 Vpr strain; S. pombe RE007 Vpr strain, BacTiter-Glo ATP luminescence, 24 h; control for the full effect not named in the record; Potency, µM (series often up to 92.2 µM), inactives show top-dose activity change, negative = less growth; 360,000 tested, 0.21% active; AID 651644; active = well fitted falling curve with a large enough effect; inconclusive = small, poorly fitted or top-dose-only effect; inactive = no such curve, though single readings can be large or run the other way;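 further: on the % scale 0 is the no-effect control and ±100 the full control effect; nearly all actives have a fitted effect of over 50% in size; the assay follows cell death caused by Vpr and the record does not say whether a fall means rescue or toxicity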
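Fission yeast strain RE007, carrying one chromosomally integrated HIV-1 vpr copy, was seeded at OD 0.01 in PMG+AL medium with 23 nL pinned compound. After 24 h at 30 °C and 99% humidity, viability was read by BacTiter-Glo luminescence.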
NS1 inh: blocks influenza NS1 protein function | S. cerevisiae slowed by influenza A NS1, growth recovery by OD600 | Potency, µM (titrated, usually from 46.1 µM), for the others: at the top dose activity, positive = more growth | 270,000 tested, 0.4% active; active means well fitted rising curve with a large enough effect; inconclusive means small, poorly fitted or top-dose-only effect; inactive means no such curve, though single readings can be large or run the other way; further: nearly all actives have a fitted effect of over 50% in size
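Compounds were scored for reversing the slow growth caused by influenza A NS1 in S. cerevisiae, measured by optical density at 600 nm. Assay medium contained 2% galactose at pH 6.0; NS1-free yeast of the same strain were the positive control.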
StopGo reporter: lowers the luciferase signal of an FMDV 2A StopGo reporter. Potency, µM (highest dose often 57.9 µM), for inactives: at the highest dose signal change, negative = less light. 410,000 tested, 1.2% active. human cells with a luciferase reporter of 2A StopGo recoding; control for the full effect not named in the record; active = well fitted falling curve with a large enough effect; inconclusive = small, poorly fitted or top-dose-only effect; inactive = no such curve, though single readings can be large or run the other way; tested in HEK293T cells; further: on the % scale 0 is the no-effect control and ±100 the full control effect; nearly all actives have a fitted effect of over 45% in size; luciferase light after 4 h
LASV entry inh: inhibitors of Lassa virus binding or cell entry | 300,000 tested, 1.2% active | Lassa virus pseudotype entry inhibition, cell reporter; control for the full effect not named in the record | Potency, µM (titrated, usually from 37.9 µM), for the others: at the highest dose activity change, negative = inhibition, hits mostly inhibitors; active means well fitted inhibition curve with a large enough effect; inconclusive means small, poorly fitted or top-dose-only effect, or effect the other way; inactive means flat fitted curve, though single readings scatter; tested in HEK293 cells; further: on the % scale 0 is the no-effect control and ±100 the full control effect; nearly all actives have a fitted effect of over 50% in size; luciferase read-out
Marburg entry inh: blocks Marburg virus binding to or entry into cells. Marburg virus pseudotyped entry inhibition, cell reporter; control for the full effect not named in the record; about a third of the inactives were read at about 46 µM. Potency, µM (top dose mostly 37.8 µM), for inactives: at the highest dose activity change, negative = inhibition, hits mostly inhibitors. 300,000 tested, 1.8% active. AID 540276; active = well fitted inhibition curve with a large enough effect; inconclusive = small, poorly fitted or top-dose-only effect, or effect the other way; inactive = flat fitted curve, though single readings scatter; tested in HEK293 cells; about a fifth of its hits are not listed in these tables; further: on the % scale 0 is the no-effect control and ±100 the full control effect; luciferase read-out
Cruzain inh noDet: blocks cruzain activity in detergent-free assay; P25779; purified cruzain, Z-FR-AMC fluorescence, no detergent; Potency, µM, for inactives: max response, negative = inhibition, most hits filed as inhibitors; 200,000 tested, 2.3% active;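 further: plate controls were enzyme without inhibitor for no effect and buffer without enzyme for full effect; nearly all actives have a fitted effect of over 40% in size; top concentration of the series not given in the record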
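Purified cruzain at 1.5 nM, pre-incubated 15 min with compound at room temperature in 100 mM sodium acetate pH 5.5, 5 mM DTT, 0.00005% Triton X-100. Reaction started with 2 uM Z-FR-AMC; AMC fluorescence increase over 60 s gives rate.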
* hit, by the source's call; ? = inconclusive; nt = no result given; & = joins results of further samples; [ ] = remark or other dose. Unless noted, the call rests on the fitted dose curve; in most records, active means well fitted curve in the direction sought with a large enough effect; inconclusive means small, poorly fitted or top-dose-only effect, or another doubt; inactive means no such curve, though single readings can be large; an effect the other way counts as inactive or inconclusive. Potency means the concentration at half of the fitted maximal effect.

SMILES | Cruzain inh Det | SARS PLP yeast | RE007 growth inh | NS1 inh | StopGo reporter | LASV entry inh | Marburg entry inh | Cruzain inh noDet
O=C(Cn1nnc(-c2ccc(OCc3ccccc3F)cc2)n1)N1CCOCC1 | 0.3% | -2% | -2% | 5% | 25% | 6% | ? | 12%
O=C(/C=C/c1ccccc1)NCCSCc1ccccc1Cl | -7.5% | -26% | 17% | -62% | -6% | 6% | 2% | -15%
Cc1ccc(S(=O)(=O)NNC(=O)CCC(=O)Nc2ccccc2)cc1 | 3.6% | 2% | 9% | 5% | 5% | 10% | -13% | 1%
COc1ccc(CC(=O)NNc2ncnc3c2cnn3-c2ccc(C)cc2)cc1OC | -0.8% | 21% | 6% | 14% | 3% | -3% | ? | -1%
CC(C)(C)Sc1ccc([N+](=O)[O-])cc1C(=O)Nc1ccncc1 | nt | 0% | -3% | 0% | 34%[activator] | 15% | 4%[46.1 µM] | nt
Cc1ccc(C=NCc2ccncc2)c(O)c1 | 2.6% | 0% | -5% | -17% | nt | -7% | -15% | 3%
CCC1CCCCN1CCNC(=O)C1CCCN(S(=O)(=O)c2cccc3nsnc23)C1 (stereo not given) | nt | -3% | -9% | 14% | -1% | nt | nt | nt
Cc1ccc(NC(=O)CCCn2c(=O)[nH]c3ccsc3c2=O)cc1 | nt | 1% | 5% | 7% | 47%[activator] | 19% | -16%[46.1 µM] | nt
CCc1ccc(N(C(=O)c2csnn2)C(C(=O)NC(C)(C)C)c2ccncc2)cc1 (stereo not given) | 0.1% | -5% | -18% | -25% | 25% | ? | 1% | 1%
COc1ccc(S(=O)(=O)N(CC(=O)Nc2cccc(C(F)(F)F)c2)c2ccc(C)cc2)cc1 | -5.7% | nt | nt | nt | -16% | ? | ? | -19%
O=C(c1ccc(F)cc1)N1CCN(CCc2ccncc2)CC1 | -0.9% | nt | nt | nt | -13% | -2%[46.1 µM] | 4%[46.1 µM] | -14%
COCc1nnc(NC(=O)c2sc3ccccc3c2Cl)s1 | -9.4% | -12% | ? | -170% | 27% | -19% | 10% | 2%
Cc1ccc(S(=O)(=O)N2CCC(C(=O)NCc3ccccc3CN3CCCC3)CC2)cc1C | nt | 5% | -6% | nt | -6% | 6% | ? | nt
CC1CCN(C(=O)c2ccccc2NC(=O)c2nsc3ccccc23)CC1 | -5.8% | nt | nt | nt | -24% | 3%[46.1 µM] | nt | -10%
COc1ccc(-c2noc(CN3CCN(c4ccccc4OC)CC3)n2)cc1OC | -1.0% | nt | nt | nt | -2% | -29%[46.1 µM] | 10%[46.1 µM] | ?
O=C(O)c1cc(NS(=O)(=O)c2cccs2)cc(NS(=O)(=O)c2cccs2)c1 | nt | 3% | 7% | nt | -11% | -1% | -2% | nt
Cc1nn(C)c(C)c1NC(=O)COc1ccc(F)cc1Br | nt | 14% | 7% | nt | ? | -15%[46.1 µM] | -28%[46.1 µM] | nt
Cc1nc2sccn2c(=O)c1S(=O)(=O)NCc1ccccc1 | -1.0% | 0% | 5% | 0% | -18%&13% | 7%[46.1 µM] | 6%[46.1 µM] | 2%
NC(=O)C1CCN(C2OC(=O)c3ccccc32)CC1 (stereo not given) | -2.2% | 3% | -1% | 1% | 0% | 1% | 6% | -2%
COc1ccc2c(C)nc(Nc3nc(C)c(C)c(=O)[nH]3)nc2c1 | -6.2% | 1% | 1% | -3% | 51%[activator] | ? | ? | ?
O=C(CSc1nc2c(c(=O)[nH]1)CN(Cc1ccc3c(c1)OCO3)CC2)Nc1cccc(Cl)c1 | -5.9% | nt | nt | nt | -10% | 18%[46.1 µM] | 0%[46.1 µM] | -8%
CC(=O)c1ccc(NS(=O)(=O)c2cccc(C)c2)cc1 | 0.9% | 18% | -1% | 11% | 125%[activator] | 9% | ? | -16%
COc1ccc(N2CC(C(=O)Nc3c4c(nn3-c3ccccc3)CS(=O)(=O)C4)CC2=O)cc1 (stereo not given) | nt | 0% | -3% | -3% | -21% | 20% | 4% | nt
COc1ccccc1N1CCN(C(=O)C2C3C=CC4(CN(Cc5ccccc5Cl)C(=O)C24)O3)CC1 (stereo not given) | 5.1% | -3% | -10% | -7% | 6% | -9% | 10% | ?
[O-]/[N+](=C\C=C\c1ccccc1)c1ccccc1 | nt | -3% | -18% | -10% | 47%[activator] | nt | nt | nt
CC1CCN(c2ccc(-c3cccc(NC(=O)c4ccco4)c3)nn2)CC1 | nt | -3% | -8% | nt | -24% | 2.5µM* | 7.9µM* | nt
CN(c1ccccc1C(=O)Nc1cccc(C(F)(F)F)c1)S(C)(=O)=O | 1.1% | 3% | 14% | 11% | -18% | 1% | nt | -4%
COc1ccc(/C(O)=C2/C(=O)C(=O)N(CCCN3CCOCC3)C2c2ccc(OC)cc2)cc1 (stereo not given) | nt | -7% | 9% | 11% | 3% | nt | nt | nt
CCOc1ccccc1NC(=O)NC1(C(=O)N2CCN3CCCC3C2)CCCCC1 (stereo not given) | 3.7% | -1% | 0% | -9% | 14% | -2% | -7%[46.1 µM] | -17%
CCC(c1nnnn1C1CCCC1)N1CCN(Cc2ccccc2)CC1 (stereo not given) | 0.2% | 3% | -6% | 2% | 7% | -4% | 0% | 6%
CN(CC(=O)OCC(=O)c1c(N)n(C)c(=O)n(C)c1=O)S(=O)(=O)c1ccc(Cl)cc1 | -1.8% | -12% | 6% | -5% | -25% | 26%[46.1 µM] | ? | 4%
Cc1csc(/C(=N\O)c2csc(C)n2)n1 | 6.4% | 11% | 7% | -5% | nt | 25% | 1% | 10%
CC(C)Cc1nnc(NC(=O)CCC(=O)NC2CCCCC2)s1 | nt | 2% | -7% | 5% | -15% | -1%[46.1 µM] | 21%[46.1 µM] | nt
COc1ccc2c(CNCCc3cccs3)c(C(=O)O)n(Cc3ccccc3)c2c1 | -1.7% | nt | nt | nt | -9% | -19%[46.1 µM] | nt | -1%
Cc1ccc(C)c(C(=O)COc2ncnc3ccccc23)c1 | nt | -2% | -8% | nt | 2% | -5% | 5% | nt
O=c1ccc(-c2ccc(S(=O)(=O)Nc3cccc(Br)c3)o2)n[nH]1 | nt | 0% | -8% | 0% | 27% | nt | nt | nt
Cc1ccc(NC(=O)C2CCCN(S(=O)(=O)c3cccs3)C2)c(C)c1 (stereo not given) | 1.0% | nt | nt | nt | -6% | ? | nt | -7%
CC1(C)CC(=O)C2=C(C1)Nc1cc(C(=O)c3ccccc3)ccc1NC2c1ccccn1 (stereo not given) | -10% | 26% | ? | -9% | -28% | ? | 1% | -9%
CC(C)c1ccc(NC(=O)C2CC(=O)N=C(N)S2)cc1 (stereo not given) | 4.5% | 13% | 17% | -1% | 18% | 12% | -16% | 12%
CCOc1ccc(S(=O)(=O)N2CCN(c3ccccc3OC)CC2)c2cccnc12 | -2.7% | 2% | -2% | 2% | -30% | -25% | ? | ?
O=C(O)/C=C/c1cn(-c2ccccc2)nc1-c1ccc(-c2ccc([N+](=O)[O-])cc2)o1 | nt | -1% | -12% | -1% | -14% | -14% | 2%[46.1 µM] | nt
CC(C)c1noc(-c2ccccc2OCC(=O)Nc2cccc([N+](=O)[O-])c2)n1 | -5.3% | nt | nt | nt | -10% | 1%[46.1 µM] | ? | 15%
Cc1ccc(S(=O)(=O)Cc2cc(F)c([N+](=O)[O-])cc2[N+](=O)[O-])cc1 | nt | -65% | ? | -103% | -41% | -21%[46.1 µM] | ? | nt
CCO/C=C/C(=O)N(C)CCC#N | 4.0% | 1% | -2% | -2% | -6% | 2% | ? | -10%
CCN(CC)c1ccc(CNc2nc3ccccc3n2CCN2CCCCC2)cc1 | nt | -1% | -4% | 4% | 0% | ? | ? | nt
N#Cc1nc(COc2cccc(Cl)c2)oc1NCc1ccco1 | -12% | -9% | -8% | -39% | 3% | nt | nt | -14%
CCN1CCN(S(=O)(=O)c2ccc3[nH]c(=O)oc3c2)CC1 | -1.3% | 18% | 15% | -5% | -17% | nt | -1% | 4%
Cc1nn(C)c(C(=O)Nc2ccc(Cl)c([N+](=O)[O-])c2)c1Cl | -2.8% | 9% | -7% | 15% | -4% | -3% | -4% | -16%
Cc1ccc(-c2csc3nc(CSc4nnc(-c5ccc(Cl)cc5)n4C)[nH]c(=O)c23)cc1 | -1.8% | 14% | -6% | 14% | 0% | -12% | 0% | -16%
COCc1cc(C)nc2sc(C(=O)Nc3cccc(OC)c3)c(N)c12 | nt | -11% | -13% | -4% | 63%[activator] | nt | nt | nt
Cc1ccc(S(=O)(=O)N2CCN(C(=O)NCc3ccc(F)cc3)CC2)c(C)c1 | nt | -1% | -15% | -3% | -16% | -11% | ? | nt
O=C(CC1N=C2c3ccccc3N=C(SCc3ccc(Cl)cc3)N2C1=O)NC1CCCCC1 (stereo not given) | 0.5% | nt | nt | nt | 25% | ? | nt | 0%
CN(C(=O)CSc1nnc(Cc2ccccc2F)n1N)C1CCS(=O)(=O)C1 (stereo not given) | 4.0% | 5% | -6% | 4% | 5% | 12% | 1% | -4%
Cc1ccccc1C(=O)N1CCC(C(=O)Nc2ccc(C(C)C)cc2)CC1 | nt | 1% | -10% | 4% | ? | nt | nt | nt
CCOc1ccc(C2C=C(c3ccc(F)cc3)Nc3ncnn32)cc1 (stereo not given) | 13% | -11% | -7% | -60% | 30% | ? | 12%&1% | 20%
CS(=O)(=O)N(CC(=O)NCC1CCCO1)c1cc(Cl)ccc1Cl (stereo not given) | 6.8% | 3% | -12% | ? | -21% | 2% | 18% | 4%
Cc1oc(-c2ccccc2F)nc1CN1CCC(C(=O)NC2CCCCCCC2)CC1 | 2.7% | -5% | 20% | 4% | ? | 28% | ? | 3%
CC(=O)c1ccc(N2CCN(C(=O)[C@H](C)NC(=O)c3ccccc3Cl)CC2)cc1 | nt | -7% | 8% | -7% | 16% | -2%[46.1 µM] | ? | nt
O=C(COC(=O)c1cccnc1Cl)c1ccc(Cl)cc1Cl | 3.2% | -7% | 3% | -25% | 21% | 5% | -1% | 0%

Bioassay records (PubChem)
